PINK1 modulator – PINK1 expression modulation. AID 624263. Potency, µM (titrated, usually from 76.6 µM), for inactives: at the top dose activation (PINK1 increase), hits mostly activators. actives 0.2% (n = 410,000). PINK1 immunofluorescence, high-content cytometry, 24 h; active = well fitted activation curve with a large enough effect; inconclusive = small, poorly fitted or top-dose-only effect; inactive = flat fitted curve, though single readings scatter; cell line not stated here;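 also: % of control where 0% means no effect; nearly all actives have a fitted effect of over 65% in size; a mitochondrial uncoupler was the plate control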
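Stable cell line, 250 cells/well, 12 h attachment; compounds pinned at 5 concentrations, 24 h; CCCP control. Fixed with nuclear dye, primary antibodies 12 h at 10 degrees C, secondary plus cell stain; laser-scanning cytometer read.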
Numbers without * were called inactive; ? = inconclusive; & = joins results of further samples. Potency is read from the fitted curve at half-maximal effect. The list is partial; count on the stated rates, not on these rows.

SMILES | PINK1 modulator
Cn1cc(-c2nc3cnc(N4CCOCC4)nc3n(CCC#N)c2=O)c2ccccc21 | 5.7%
c1cncc(CNc2nc(-c3ccc4c(c3)OCO4)nc3ccccc23)c1 | 0.2%
CN(C)c1ccc(-c2cc(NCc3cccnc3)ncn2)cc1 | 2.1%
NC(=O)C1CCN(c2nc(-c3ccc4occc(=O)c4c3)cs2)CC1 | -0.5%
O=S(=O)(c1c(F)cccc1F)C1CCN(S(=O)(=O)c2ccc3c(c2)OCCO3)CC1 | 0.9%
c1cncc(-c2ccc3ncnc(NCCN4CCOCC4)c3c2)c1 | 0.7%
Cn1nnnc1Sc1ncnc2scc(-c3ccsc3)c12 | -0.6%
Cc1ccc(CN2CCC(=O)N(Cc3ccccn3)CC2)c(C)c1 | 1.2%
CCC1CN(CCNC(=O)C(C)(C)O)Cc2cc(OC)ccc2O1 (stereo not drawn) | -0.1%
Cc1cccc(CN2C[C@H](Sc3ccccn3)C[C@H]2C(=O)Nc2ccc3sc(C)nc3c2)c1 | -0.5%
Cc1ccsc1CNc1ncnc2ccc(-c3c(C)noc3C)cc12 | 0.8%
c1cncc(-c2nccc(-n3ccnc3)n2)c1 | -0.5%
COc1ccccc1CN1CC2(CCN(C(=O)c3cnccn3)CC2)C1 | -0.5%
O=C(NNC(=O)c1cc2ccccc2[nH]1)OCc1ccccc1 | 5.9%
COc1ccc(NC(=O)N2CC3(CCN(C(=O)c4cccn4C)CC3)C2)cc1 | 0.9%
Cc1nc2cc(NC(=O)[C@@H]3C[C@@H](Sc4ccccn4)CN3Cc3ccccc3)ccc2s1 | -0.4%
COc1cc(C)c(CN2CCc3nnc(C(C)NC(=O)c4cc(F)ccc4F)n3CC2)cc1C (stereo not drawn) | 0.0%
COc1cccc(Cn2c(=O)c(-c3cccs3)nc3cnc(Nc4cccc(OC)c4)nc32)c1 | 8.4%
O=c1c(CCc2ccccc2)nc2cnc(N3CCNCC3)nc2n1Cc1ccc(F)cc1 | 16.6%
COCCn1c(=O)c(C)nc2cnc(OCc3ccccc3)nc21 | 0.3%
COc1cccc(-c2cncnc2N(C)Cc2ccco2)c1 | 0.0%
COc1ccc(Oc2ncc3ncc(=O)n(-c4ccc(OC)cc4)c3n2)cc1 | -0.3%
COCc1c(C(=O)NC2CCCCC2)cnn1-c1nccc(-c2ccccc2OC)n1 | 0.5%
c1ccc(-c2cccc(N3CCCC4(CCNCC4)C3)c2)cc1 | -1.1%
COc1ccc(-n2c(=O)c(CCc3ccccc3)nc3cnc(N(C)C)nc32)cc1 | -0.6%
Next section:
SMILES | PINK1 modulator
COc1ccc(CN2CCN(C(C)=O)CC2)cc1OC1CCN(C(=O)c2ccc3[nH]c(C)c(C)c3c2)CC1 | -1.1%
O=c1cnc2cnc(Nc3ccccc3)nc2n1Cc1ccc(F)cc1 | 6.9%
FC(F)(F)c1ccccc1-c1nccc(N2CCNCC2)n1 | 1.9%
Cc1ncc2c(c1CNC(=O)c1ccccc1F)CCN(C(=O)c1[nH]c3ccc(Cl)cc3c1C)C2 | 4.5%
Nc1ncnc2c1nc(Br)n2C1OC(CO)C(O)C1O (stereo not drawn) | 1.1%
COc1ncc2nc(C)c(=O)n(C[C@H]3CCCO3)c2n1 | -0.9%
NC(=O)C1CCN(c2nc(-c3cccs3)cs2)CC1 | 0.2%
Cc1c(C(=O)NCC(C)C)sc2ncnc(NCC3CCCO3)c12 (stereo not drawn) | -0.5%
Cn1c(=O)c(-c2ccc(Cl)cc2)nc2cnc(Oc3ccccc3)nc21 | 16.8%
O=C(c1ccncc1)N1CCC2(CCCN(C(c3ccccc3)c3ccccc3)C2)CC1 | 2.6%
COc1cccc(Cn2c(=O)c(-c3cccs3)nc3cnc(OC)nc32)c1 | 1.6%
CC(=O)N(Cc1ccc2c(c1)OCO2)Cc1cc2ccc(C)cc2nc1-c1cccc(C)c1 | -0.3%
O=C(c1cccc(F)c1)N1CCC2(CC1)CCN(c1ccccc1)CC2 | 1.1%
CCNc1ncc2nc(-c3ccc(Cl)cc3)c(=O)n(C3CC3)c2n1 | 13.8%
COC(=O)c1ccccc1-c1cc(C)cc2c1OC(CNC(=O)c1occc1C)C2 (stereo not drawn) | 0.4%
COc1ccc(OC)c(-c2ccnc(-n3ncc(C(=O)N(C)CCc4ccccn4)c3C)n2)c1 | -0.2%
CCC1CN(CC(=O)NC(C)CO)Cc2cc(OC)ccc2O1 (stereo not drawn) | -1.1%
O=C(c1cccc(F)c1)N1CCC[C@@]2(CCN(Cc3ccncc3)C2)C1 | 1.1%
CC(=O)Nc1ccccc1Nc1nc(NCCO)nc(N2CCCC2)n1 | 0.0%
O=C(c1cnn(-c2nccc(-c3ccccc3F)n2)c1C1CC1)N1CCCCC1c1cccnc1 (stereo not drawn) | 0.5%
CCn1cc(CN2CCOc3ccc(C(O)C4CCCCC4)cc3C2)c(C)n1 (stereo not drawn) | 0.0%
COc1ccc(Oc2ncc3nc(-c4ccc(F)cc4)c(=O)n(C)c3n2)cc1 | -0.2%
O=c1c(CCc2ccccc2)nc2cnc(N3CCOCC3)nc2n1C[C@H]1CCCO1 | 0.7%
Cc1c(C(=O)NCCCc2ccncc2)cnn1-c1nccc(-c2ccccc2F)n1 | -0.6%
COc1ccc(-c2nc3cnc(N4CCOCC4)nc3n(C3CC3)c2=O)cc1 | 0.4%
Other entries:
SMILES | PINK1 modulator
Cc1ccccc1C1(CC(=O)N2CCN(C)CC2)CC(=O)N(Cc2ccncc2)C1=O (stereo not drawn) | 0.0%
O=C(c1csnn1)N1CCC2(CCCN(c3ccccc3)C2)CC1 | -0.5%
CC(C)C(=O)NC(C)c1nnc2n1CCN(Cc1cccc3ncccc13)CC2 (stereo not drawn) | -0.8%
CCn1c(-c2ccccc2F)nc2cc(NC(C)=O)cc(C(=O)N3CCNC(=O)C3CC(=O)OC)c21 (stereo not drawn) | 0.6%
Cc1c(C(=O)NCCCN2CCCC2=O)cnn1-c1ncc2c(n1)-c1ccccc1CC2 | -0.8%
Cc1nc2cnc(Oc3ccccc3)nc2n(CCc2ccccc2)c1=O | 3.4%
C[C@@H]1CN(Cc2ccc3c(c2)CN(C(=O)c2ccc(Oc4ccccc4)o2)CCO3)C[C@H](C)O1 | 2.1%
CN(C)c1ccc(-c2ccc3ncnc(N(C)C)c3c2)cc1 | 14.1%
COc1ccc(C(=O)N2CCC[C@@]3(CCN(Cc4ccc(C#N)cc4)C3)C2)cc1 | 0.8%
Clc1ccccc1-c1nc(N2CCNCC2)c2ccccc2n1 | -0.6%
CC(=O)NCCNc1ncnc2ccc(-c3ccoc3)cc12 | 0.8%
Cc1ccc(-c2ccnc(-n3ncc(C(=O)N(C)CC4CCCN(C)C4)c3C)n2)o1 (stereo not drawn) | 0.8%
CN(C)c1nc2cc(Cl)ccc2cc1CN(Cc1ccc2c(c1)OCO2)C(=O)c1ccoc1 | 3.0%
CC(=O)N1CCC[C@H]1C(=O)NCC1Cc2cc(-c3cccc(OC(F)(F)F)c3)ccc2O1 (stereo partly drawn) | 0.2%
COc1cc(-c2cc(C)c3c(OC)ccc(OC)c3n2)cc2c1OCCN(C(=O)C(C)c1n[nH]c(=O)c3ccccc13)C2 (stereo not drawn) | 0.9%
COc1ccc(Oc2ncc3ncc(=O)n(C[C@H]4CCCO4)c3n2)cc1 | -0.9%
CCN(Cc1ccncc1)Cc1ccc2c(c1)CN(C(=O)c1ccc(C#CC(C)(C)O)o1)CCO2 | 0.4%
CSc1nnc(CCNC(=O)c2ccc(-c3cccc(F)c3)cc2)n1-c1ccc(F)cc1 | -0.4%
c1cncc(CNc2ncncc2-c2cccnc2)c1 | 1.6%
CN1CCN(c2ncc3nc(-c4cn(C)c5ccccc45)c(=O)n(-c4ccccc4)c3n2)CC1 | 0.6%
O=c1cnc2cnc(Oc3cccc(Cl)c3)nc2n1CCc1ccccc1 | -0.2%
CCNc1ncc2nc(-c3ccc(F)cc3)c(=O)n(CCC#N)c2n1 | 11.4%
COc1cccc(Nc2ncc3nc(-c4ccc(F)cc4)c(=O)n(C)c3n2)c1 | 8.6%
C[C@@H]1CN(Cc2ccc3c(c2)CN(Cc2cn[nH]c2-c2ccccc2)CCO3)C[C@H](C)O1 | -0.1%
COc1cccc(-c2ccc3ncnc(N(C)Cc4ccco4)c3c2)c1 | 0.5%&0.0%

The last five records of the part before are carried over, then new ones follow.
SMILES | PINK1 modulator
O=c1cnc2cnc(Oc3cccc(Cl)c3)nc2n1CCc1ccccc1 | -0.2%
CCNc1ncc2nc(-c3ccc(F)cc3)c(=O)n(CCC#N)c2n1 | 11.4%
COc1cccc(Nc2ncc3nc(-c4ccc(F)cc4)c(=O)n(C)c3n2)c1 | 8.6%
C[C@@H]1CN(Cc2ccc3c(c2)CN(Cc2cn[nH]c2-c2ccccc2)CCO3)C[C@H](C)O1 | -0.1%
COc1cccc(-c2ccc3ncnc(N(C)Cc4ccco4)c3c2)c1 | 0.5%&0.0%
COc1ccccc1CNc1ncncc1-c1ccccc1Cl | 2.0%
COc1ccc(F)c(CN2CCOc3ccc(CN4CCC(Oc5cccnc5)CC4)cc3C2)c1 | 0.1%
Cc1nc2cnc(N3CCNCC3)nc2n(CCC#N)c1=O | -0.7%
COc1ccc(-n2c(=O)c(-c3ccc(F)cc3)nc3cnc(N4CCNCC4)nc32)cc1 | 2.2%
COc1ccc(CNc2ncncc2-c2cccc(C#N)c2)c(OC)c1 | -0.7%
C[C@@H]1CN(Cc2ccc3c(c2)CN(Cc2cccn2-c2ccccn2)CCO3)C[C@H](C)O1 | 1.0%
CC(=O)NCCNc1ncnc2ccc(-c3ccc4c(c3)OCO4)cc12 | 0.0%
Cc1ncc2c(c1CNS(=O)(=O)N(C)C)CCN(C(=O)c1ccc(F)cc1Cl)C2 | -0.1%
CC(=O)NCCNc1cc(-c2ccccc2CN(C)C)ncn1 | -0.5%
CCNc1ncc2nc(CCc3ccccc3)c(=O)n(-c3ccc(OC)cc3)c2n1 | 2.5%
O=C(c1ccncc1)N1CCC2(CC1)CCN(c1ccc(-c3ccccc3)cc1)CC2 | -0.2%
O=c1c(-c2ccc(F)cc2)nc2cncnc2n1-c1ccccc1 | -0.2%
COc1cccc(-c2ccc3ncnc(NCCN4CCOCC4)c3c2)c1 | -0.7%
Cc1noc(C)c1-c1cc(NCc2cccnc2)ncn1 | 1.3%
Cc1cc(-c2ccnc(-n3ncc(C(=O)N4CCCCC4c4cccnc4)c3C3CC3)n2)c(C)s1 (stereo not drawn) | 0.9%
Cc1cc(-c2ccnc(-n3ncc(C(=O)NCCc4cccnc4)c3C)n2)c(C)s1 | 1.1%
COCC(=O)N1CCC2(CCCN(c3cccc(-c4ccccc4)c3)C2)CC1 | 0.5%
O=c1c(-c2cccs2)nc2cnc(Oc3ccccc3)nc2n1-c1ccccc1 | ?
COc1cc(=O)n2c(c1C(=O)NC(C)c1ccco1)CCN(C(=O)c1ccccc1SC)CC2 (stereo not drawn) | -0.6%
CC(C)C(C)/C=C/C(C)C1CCC2C3=CCC4CC(=O)CC[C@@]4(C)C3CC[C@]21C (stereo partly drawn) | 1.1%
CCOc1ccc(C(=O)c2ccc(O)c(O)c2O)cc1 | 0.5%
CC(=O)N1CCC2(CCCN(Cc3nccs3)C2)CC1 | -0.6%
COc1cc(-c2c(OC)cccc2OC)cc2c1OCCN(C(=O)CCn1nc(C)cc1C)C2 | 2.4%
O=C(NCc1nnc2n1CCN(Cc1cc3c(cc1Cl)OCO3)CC2)C1CCOC1 (stereo not drawn) | 0.4%
CN(C)Cc1ccccc1-c1nc(NC2CCNCC2)c2ccccc2n1 | -0.7%
Following part
SMILES | PINK1 modulator
Cc1noc(C)c1-c1nc(N(C)C)c2ccccc2n1 | -1.5%
CN(C)Cc1ccccc1-c1cncnc1NC1CC1 | -0.8%
O=C(C(=O)N1CCOc2ccc(CN3CCN(Cc4ccccn4)CC3)cc2C1)c1ccccc1 | 0.1%
COc1cc(CNc2nc(C)c(-c3ccn(CC4CCCN(C)C4)n3)s2)ccc1F (stereo not drawn) | -0.5%
O=C(c1cccc(F)c1F)N1CCOc2ccc(CN3CCC(Oc4cccnc4)CC3)cc2C1 | -0.6%
COC(=O)c1c(OCc2ccccn2)cc(=O)n2c1CCN(Cc1ccc3c(c1)CCCN3C)CC2 | 2.4%
COc1ccccc1C1CN(Cc2cnn(C)c2C)Cc2ccccc2O1 (stereo not drawn) | 0.9%
COCc1c(C(=O)N2CC3CCC2C3)cnn1-c1nccc(-c2ccccc2OC)n1 (stereo not drawn) | 0.6%
Cc1cccc(CNc2nc(-c3cccc(NS(C)(=O)=O)c3)nc3ccccc23)c1 | 0.5%
CN(C)Cc1ccccc1-c1nc(NCc2ccccc2)c2ccccc2n1 | 5.2%
Cn1cccc1C(=O)N1CCC2(CC1)CCN(c1cccc(-c3ccccc3)c1)CC2 | 1.2%
Cc1ccc2c(CC(=O)N3CCOc4ccc(CN5C[C@@H](C)O[C@@H](C)C5)cc4C3)cc(=O)oc2c1 | 0.0%
Cc1ccc(C(=O)Nc2cccc(-c3nc(CNC(=O)c4ccccc4-n4cccn4)c(C)o3)c2)s1 | 1.4%
COc1cccc(-c2ccnc(-n3ncc(C(=O)N(C)CCc4ccccn4)c3C)n2)c1 | 0.1%

An excerpt from above in order of length of the SMILES, highest first:
SMILES | PINK1 modulator
COc1ccc(OC)c(-c2ccnc(-n3ncc(C(=O)N(C)CCc4ccccn4)c3C)n2)c1 | -0.2%
COC(=O)c1ccccc1-c1cc(C)cc2c1OC(CNC(=O)c1occc1C)C2 (stereo not drawn) | 0.4%
COCc1c(C(=O)NC2CCCCC2)cnn1-c1nccc(-c2ccccc2OC)n1 | 0.5%
Cc1c(C(=O)NCC(C)C)sc2ncnc(NCC3CCCO3)c12 (stereo not drawn) | -0.5%
CN(C)c1ccc(-c2ccc3ncnc(N(C)C)c3c2)cc1 | 14.1%
COc1ccccc1CNc1ncncc1-c1ccccc1Cl | 2.0%

Bioassay records from PubChem BioAssay.
